Screening data (PubChem BioAssay)
KCNQ2 inh – KCNQ2 potassium channel inhibitors, primary screen, cell-based, CHO-K1, FluxOR thallium flux, B-score (AID 2156); Potassium voltage-gated channel subfamily KQT member 2 (Rattus norvegicus), O88943; 20 min; stronger effect = lower value; only compounds with negative scores are shown here; some inactives read as strong as hits; B-score at 10 µM; 1.1% of 310,000 active;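 active = fluorescence ratio B-score at most minus 3 library SDs, with starting brightness B-score within 2 library SDs, cut at about -5.5 in these data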
Target sequence (O88943 whole entry, looked up): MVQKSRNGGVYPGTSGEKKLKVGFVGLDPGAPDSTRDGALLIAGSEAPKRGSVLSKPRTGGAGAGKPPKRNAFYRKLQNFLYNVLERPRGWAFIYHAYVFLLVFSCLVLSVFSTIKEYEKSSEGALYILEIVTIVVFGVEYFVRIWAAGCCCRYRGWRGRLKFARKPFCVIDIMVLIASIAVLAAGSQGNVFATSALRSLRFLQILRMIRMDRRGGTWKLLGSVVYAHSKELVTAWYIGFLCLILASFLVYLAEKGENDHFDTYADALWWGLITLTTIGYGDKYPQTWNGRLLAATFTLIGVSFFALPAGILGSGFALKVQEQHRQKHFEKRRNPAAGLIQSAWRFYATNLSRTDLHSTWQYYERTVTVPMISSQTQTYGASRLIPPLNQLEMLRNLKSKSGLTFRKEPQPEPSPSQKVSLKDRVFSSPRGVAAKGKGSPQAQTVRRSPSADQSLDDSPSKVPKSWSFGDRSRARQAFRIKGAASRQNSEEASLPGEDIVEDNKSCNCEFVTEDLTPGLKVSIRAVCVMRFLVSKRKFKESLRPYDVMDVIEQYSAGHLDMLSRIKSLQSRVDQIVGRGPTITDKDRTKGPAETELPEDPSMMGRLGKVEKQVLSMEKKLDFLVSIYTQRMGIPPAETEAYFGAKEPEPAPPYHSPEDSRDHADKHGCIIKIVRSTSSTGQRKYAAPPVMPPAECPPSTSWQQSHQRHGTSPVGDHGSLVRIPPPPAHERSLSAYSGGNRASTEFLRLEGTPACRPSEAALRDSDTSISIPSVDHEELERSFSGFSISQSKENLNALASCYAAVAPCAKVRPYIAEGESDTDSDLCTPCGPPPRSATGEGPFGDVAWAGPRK
KCNQ2 inh baseline – also measured in KCNQ2 inh; calls as there; B-score; measured here: initial fluorescence intensity artifact check;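 brightness before thallium and not channel activity; 0 = typical well and far values either way flag optical interference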
An asterisk follows results filed as active; i = inactive. The list is partial; the hit share may differ from the screen's.

Below each compound – KCNQ2 inh | KCNQ2 inh baseline
Cc1cccc(C)c1-n1c(C)cc(/C=N/NC(=O)c2ccncc2)c1C
    i | -0.22
O=C(/C=C\c1ccc(-c2ccccc2)o1)c1ccccc1
    i | -1.4
COc1cc(C(C[N+](=O)[O-])c2c(C)[nH]c3ccccc23)cc(OC)c1OC (stereo not drawn)
    i | -3.2
Cc1cc(C)nc(NS(=O)(=O)c2ccc(NC(=S)NC(=O)C(C)(C)C)cc2)n1
    i | 0.12
COCCNC(=S)N1CCN(c2nc(-c3ccc(F)cc3)cs2)CC1
    i | 0.32
Cc1cccc(NC(=O)c2nc[nH]c2C(=O)Nc2cccc(C)c2)c1
    i | 2.4
CCN1C(=O)[C@@H]2[C@@H](c3ccc(-c4ccc(Cl)c(Cl)c4)c(OC)c3)N3CCCC[C@@]3(C(=O)OC)[C@@H]2C1=O
    i | 0.54
COc1ccc(C2C(C(=O)OC(C)C)=C(C)N=c3s/c(=C\c4cccs4)c(=O)n32)cc1 (stereo not drawn)
    i | -0.79
O=S(=O)(c1ccccc1)N1CCN=C1SCc1cccc(Cl)c1
    i | 0.02
O=C(CNC(c1ccccc1)c1ccccc1)Nc1ccccc1F
    i | 1.6
Cc1nn(-c2ccccc2)c(N)c1C1(O)C(=O)N(C(C)C)c2ccccc21 (stereo not drawn)
    i | -0.38
CN(C)CCCNC(=O)/C(=N\O)c1ccccc1
    i | 2.3
COc1ccc(CCN2CC(C(=O)O)CC2=O)cc1 (stereo not drawn)
    i | 0.34
Cc1cc(C)cc(SCc2noc(C(=O)NCc3ccccc3)c2C(=O)NCc2ccccc2)c1
    i | 0.94
COc1ccc(C(=O)/C(=C\N(C)C)n2nc(C)cc2C)cc1
    i | 1.6
CC(=O)Nc1cc(-c2nc3ccccc3o2)ccc1Cl
    i | -0.68
O=C1[C@H]2[C@@H](c3ccc(Cl)cc3)N3C(=O)N(c4cccc(F)c4)C(=O)[C@@]3(Cc3ccc(Cl)cc3)[C@H]2C(=O)N1C1CCCCC1
    i | -0.06
COc1ccc(F)cc1S(=O)(=O)N1CCCCC1
    i | -2.2
Cc1cc(Cl)ccc1NC(=O)C1CCN(S(C)(=O)=O)CC1
    i | 0.16
Cc1cc(NC(=O)CSc2nnc(C3CC3)n2-c2ccccc2)no1
    i | -0.45
COc1cc(C(=O)N2CCN(C(=O)C3CC3)CC2)cc(OC)c1OC
    i | -1.6
CCOc1c(CNCCN2CCOCC2)cccc1OC
    i | 2.2
CC1SC2(NC1=O)C1CC3CC(C1)CC2C3 (stereo not drawn)
    i | -1.8
CN1CCN(S(=O)(=O)c2cccc(C(=O)Nc3cc(Cl)ccc3N3CCOCC3)c2)CC1
    -7.5* | 0.64*
COc1cccc2[nH]c(C(=O)NN)c(N)c12
    i | 0.49
Cc1ccc(CNC(=O)c2ccc(NC3=NC4CS(=O)(=O)CC4S3)cc2)cc1 (stereo not drawn)
    i | 0.55
Fc1ccc(NCc2ccccc2F)cc1Cl
    i | -2.5
Cc1nn(C)cc1CN(C)Cc1c(C(=O)N(C)Cc2ccccc2)nc2ccccn12
    i | -0.29
O=C(Nc1ccc2oc(=O)ccc2c1)c1cc2ccccc2o1
    i | -0.92
Cc1c(NC(=O)COc2ccc3ccccc3c2)c(=O)n(-c2ccccc2)n1C
    i | 0.83
CN(Cc1ccccc1)C(=O)c1ccccc1C(=O)O
    i | -1.8
CCc1ccccc1NC(=O)N[C@@H](C)C(=O)O
    i | 0.01
CCCCOc1ccc2c(C)cc(=O)oc2c1OCCCC
    i | -0.22
O=C(Cc1ccc(S(=O)(=O)N2CCOCC2)s1)Nc1cc(C(F)(F)F)ccc1N1CCCC1
    i | -0.44
CC1CN(CCCCSc2ccc(Cl)cc2)CC(C)O1 (stereo not drawn)
    i | -0.41
O=C(CN1CCOCC1)Nc1nc(-c2ccccc2)cs1
    i | 0.05
N#Cc1ccccc1N=C1CCCN1Cc1ccccc1
    i | 1.7
Fc1ccc(CN2CCCN(Cc3nc(-c4ccc5c(c4)OCO5)no3)CC2)cc1
    i | 0.63
O=C(CSc1nc2ccc([N+](=O)[O-])cc2[nH]1)NCCc1ccccc1
    i | -1.3
O=C(COC(=O)c1ccc([N+](=O)[O-])o1)Nc1cccc(S(=O)(=O)N2CCOCC2)c1
    i | 0.55
Cc1nc(N2CCN(Cc3ccc4c(c3)OCO4)CC2)[nH]c(=O)c1C
    i | -0.8
O=C(CCCCCn1c(=O)[nH]c2ccccc2c1=O)NCCc1c[nH]c2ccccc12
    i | 0.06
S=C(NCCSCc1ccc(Cl)cc1)Nc1ccccc1
    i | -0.25
CC(C)Oc1cccc(C(=O)C2CCCN(C(=O)CCn3cnnn3)C2)c1 (stereo not drawn)
    i | 0.05
COc1ccc([N+](=O)[O-])cc1NC(=O)Nc1ccccc1
    i | 1.9
NC(=O)c1ccccc1N=Cc1ccccn1
    i | 0.1
Cc1ccccc1NC(=O)c1cccc(N2C(=O)C3CCC(C)CC3C2=O)c1 (stereo not drawn)
    i | -0.03
NC(N)=N/N=C/c1cccc([N+](=O)[O-])c1O
    i | 1.3
O=C(NCc1ccccc1F)C1CCCN1C(=O)Nc1ccccc1 (stereo not drawn)
    i | 0.05
CN(CCOCCOc1ccc(F)cc1)Cc1ccccc1
    i | -0.14
CCC(Oc1ccccc1)C(=O)Nc1cc(C(F)(F)F)ccc1N1CCOCC1 (stereo not drawn)
    -7* | 0.77*
Cn1cccc1C(=O)NC(=O)CSc1nnc(C2CC2)n1-c1ccccc1
    i | 0.99
CC1CC(C)(C)CC2(C1)NC(=O)N(CC(=O)N(Cc1ccccc1)c1ccccc1)C2=O (stereo not drawn)
    i | -0.15
CCn1c(SCC(=O)NCCc2ccc(Cl)cc2)nnc1-c1cccs1
    i | -1.4
O=C(OCC(=O)N1CCc2ccccc21)C1=COCCO1
    i | -1.6
O=C(NNS(=O)(=O)c1ccc(F)cc1)c1ccc(S(=O)(=O)N2CCCCC2)cc1
    i | 1.1
COc1ccc(C2CC(c3ccccc3)Nc3nc(NS(C)(=O)=O)nn32)cc1 (stereo not drawn)
    i | -1.5
COc1ccc([N+](=O)[O-])c(OC)c1C(=O)Nc1ccc(F)cc1F
    i | 0.11
O=C(CN1C(=O)C2CCCCC2C1=O)Nc1nccs1 (stereo not drawn)
    i | 1.3
COc1cc(NC(=O)COC(=O)CC(NC(C)=O)c2ccccc2)cc(OC)c1 (stereo not drawn)
    i | -0.16

Of the compounds above, these contain a CF3 group.
Below each compound – KCNQ2 inh | KCNQ2 inh baseline
O=C(Cc1ccc(S(=O)(=O)N2CCOCC2)s1)Nc1cc(C(F)(F)F)ccc1N1CCCC1
    i | -0.44
CCC(Oc1ccccc1)C(=O)Nc1cc(C(F)(F)F)ccc1N1CCOCC1 (stereo not drawn)
    -7* | 0.77*

(cont.)
Below each compound – KCNQ2 inh | KCNQ2 inh baseline
CC(=O)NCCC(=O)N1CCCC(N(C)CCc2ccccc2)C1 (stereo not drawn)
    i | -1.2
CCN(C(=O)CN1CCN(C)CC1)c1cccc2ccccc12
    i | -2.1
O=C(Nc1ccncc1)Nc1ccccc1Cl
    i | -0.12
CCCC[C@@H]1CNC(=S)N1CCc1cccc2ccccc12
    i | -1.7
CCN(C(=O)c1ccco1)c1nnc(-c2ccc(OC)cc2)s1
    i | -0.03
Cn1c(=O)[nH]c(=O)c2c1nc(N(CCO)Cc1ccccc1)n2Cc1ccccc1Cl
    i | 0.14
COc1cccc(/C=C2\C(=O)N(c3cccc(C)c3)C(=O)c3ccccc32)c1
    i | 0.78
CC1CCN(Cc2nnnn2-c2cccc([N+](=O)[O-])c2)CC1
    i | -0.85
CN(NS(=O)(=O)c1cccs1)c1ncc(C(F)(F)F)cc1Cl
    i | -0.42
CC(C)n1cnc2c(=S)nc[nH]c21
    i | -1.9
CC(C)OC(=O)NCN1C(=O)C2C3C=CC(C3)C2C1=O (stereo not drawn)
    i | 1.4
Cc1cc(-c2cc(-c3ccccc3)on2)nc(NC2CCCC2)n1
    i | -0.73
O=C(Nc1ccccn1)C(=O)N1CCCCC1
    i | 0.59
Cc1cc(NC(=O)COC(=O)c2nccnc2N)n(-c2ccccc2)n1
    i | 0.76
COc1ccc(Cn2nnnc2C(c2cc3cc(C)ccc3[nH]c2=O)N2CCOCC2)cc1 (stereo not drawn)
    i | -0.02
Cc1nc2ncccn2c1-c1csc(Nc2ccc(O)cc2)n1
    i | -1
COc1ccc(C(=O)Nc2cc(C)cc(C)c2)cc1S(=O)(=O)N1CCOCC1
    i | 2.7
CCOC(=O)c1c(-c2ccc(OC)cc2)csc1NC(=O)CSc1nnc(C)c(=O)[nH]1
    i | -0.34
N#Cc1cnc(NOCc2ccc(Cl)cc2)nc1
    i | -0.13
O=C(Nc1ccc(NC(=S)NC(=O)c2ccccc2Cl)cc1)c1cccc(Cl)c1
    i | 1
Cc1[nH]c2ccc(-c3nnc(SCC(=O)c4ccccc4F)o3)cc2c1C
    i | -2
Cc1ccc(Nc2nc(CSc3n[nH]c(N)n3)cs2)cc1
    i | -0.95
NS(=O)(=O)c1ccc(NC(=O)COC(=O)CCC2CCCCC2)cc1
    i | 1.1
O=C(CSc1nnc2sc3ccccc3n12)NCc1ccco1
    i | 1.8
COc1cccc(-c2nc(CS(=O)(=O)CC(=O)NCCc3ccccc3)c(C)o2)c1
    i | 0.52
O=C(Oc1cc2oc(=O)c3c(c2cc1Cl)CCCC3)c1ccco1
    i | 2.3
COc1ccc(-n2c(C)nnc2SCC(=O)NC2CC2)cc1
    i | 1
Cc1csc2ncc(C(=O)Nc3ccc(C(F)(F)F)cc3)c(=O)n12
    i | 0.49
CSc1ccc(CN(C)C(=O)CNC(=O)c2sc3ccccc3c2Cl)cc1
    i | 4.2
O=C(C[n+]1ccncc1)c1ccccc1
    i | -0.27

Reprinted from the part before: four entries, followed by the next part.
Below each compound – KCNQ2 inh | KCNQ2 inh baseline
COc1ccc(-n2c(C)nnc2SCC(=O)NC2CC2)cc1
    i | 1
Cc1csc2ncc(C(=O)Nc3ccc(C(F)(F)F)cc3)c(=O)n12
    i | 0.49
CSc1ccc(CN(C)C(=O)CNC(=O)c2sc3ccccc3c2Cl)cc1
    i | 4.2
O=C(C[n+]1ccncc1)c1ccccc1
    i | -0.27
Cc1ccc(C)n1-c1ccccc1N1CCCCC1
    i | 1.1
COn1c(=O)c(-c2cccc(Br)c2)[n+]([O-])c2ccccc21
    i | 0.96
CCC(C)NC(=O)c1cn(CCOC)c(=O)c2c1c1ccccc1n2C (stereo not drawn)
    i | -0.19
COc1ccc(OC)c(N2CC(O)(c3ccccc3)[N+]3=C2SCCC3)c1 (stereo not drawn)
    i | 0.5
Cc1cc(CNC(=O)C2(C(F)(F)F)C/C(=C\CCO)CCCO2)nn1C (stereo not drawn)
    i | -1.5
Cc1ccc(Nc2nc(CSc3nnnn3-c3ccccc3)cs2)cc1
    i | -2.3
CCOc1ccc(N(CC(=O)Nc2c(C)cccc2C)S(=O)(=O)c2c(C)[nH]c(=O)[nH]c2=O)cc1
    i | 0.33
Clc1cccc(CSc2nccn2-c2ccccc2)c1
    i | 0.08
CN1CCN(C(=O)C23CCC(C)(c4nc5ccccc5nc42)C3(C)C)CC1 (stereo not drawn)
    i | 1.1
Cc1c(C(=O)N(C)CCc2cnn(C)c2)oc2c(F)cccc12
    i | -0.17
Cc1ccccc1-n1ncc2c1CC(C)(C)CC2NC(=O)c1snnc1C (stereo not drawn)
    i | 1.1
Cc1cccc(C)c1OCC(=O)N=Nc1c(O)[nH]c2ccc(Br)cc12
    i | -0.01
O=C(COc1cccc(C(F)(F)F)c1)N1CCN(c2ccc(O)cc2)CC1
    i | -0.23
CCOc1ccc(S(=O)(=O)N2CCOCC2)cc1NC(=O)CSCC(=O)Nc1cccc(C)c1
    i | -0.56
O=C(COC(=O)C1(c2ccccc2F)CCCC1)N1CCN(C(=O)c2ccco2)CC1
    i | 0.89
COC(=O)c1ccccc1NC(=O)c1nc2nc(C)cc(C(F)F)n2n1
    i | 0.42
CCOC(=O)C1=C(C)N(c2ccccc2)C(=O)NC1c1cccc([N+](=O)[O-])c1 (stereo not drawn)
    i | -0.43
CC(C)(CN1CCCC1)NC(=O)C1CCC(=O)N(CCCN2CCOCC2)C1 (stereo not drawn)
    i | -0.01
Cc1ccc(C(=O)NCC(=O)OCC(=O)c2cc(C)n(Cc3ccco3)c2C)cc1
    i | 0.59
CCCOC(=O)CCc1n[nH]c(=O)[nH]c1=O
    i | -0.95
Cc1noc(C)c1COC(=O)COc1ccc2c(C)cc(=O)oc2c1
    i | 0.2
Cc1ccc(CNC(=O)CO/N=C/c2ccc(C(C)(C)C)cc2)cc1
    i | 0.13
Cc1c(C(=O)O)oc2ccc(S(=O)(=O)NCc3ccc(F)cc3)cc12
    i | -0.41
Cc1ncc(N=Nc2ccccc2Cl)c(-c2ccccc2)n1
    i | -0.96
CCC(C(=O)Nc1cc(Cl)c(OC)cc1OC)c1ccccc1 (stereo not drawn)
    i | -0.24
CCOC(=O)c1c(NC(=O)CN2C(=O)NC(C)(c3ccc(OC(F)F)cc3)C2=O)sc(C)c1C (stereo not drawn)
    i | -0.29
N#CC1=C(N)Oc2n[nH]c(-c3ccc(F)cc3)c2C1c1cccc(OC(=O)N2CCOCC2)c1 (stereo not drawn)
    i | -0.04
COc1ccccc1CNC(=O)c1ccc(CS(=O)(=O)c2ccccc2OC)o1
    i | 0.55
O=C(Cc1c(F)cccc1Cl)N1CCN(S(=O)(=O)c2cccc(F)c2)CC1
    i | -0.22
COc1ccc(Cn2c(-c3ccc(C)cc3)c[n+]3ccccc23)cc1
    i | -1.5
Cc1cc2oc(=O)cc(CN3CCN(C/C=C/c4ccccc4)CC3)c2cc1O
    i | -1.6
